Screens as filed in PubChem.
NOMO-1 viab: NOMO-1 AML cell viability reduction, primary screen, STK33 inhibitor project, CellTiter-Glo luminescence; NOMO-1 AML viability, 72 h; inhibition, % (no concentration beside the values); 7.5% of 37,000 active; AID 2330, 2010;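 active = most replicates above 80%; inconclusive = exactly half above 80%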;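 note: wells of about 30 µL received 25 nL stock; 0% = median of vehicle wells and 100% = reference inhibitor level; the first replicate is given; inactives centre near 10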
Active calls of the source: *; ? = inconclusive. A portion of the library (hit frequency here may not be typical).

Start of the data: the first 13 compounds, to show the layout:
SMILES	NOMO-1 viab
C[C@H]1CN([C@@H](C)CO)C(=O)Cc2cc(NC(=O)NC3CCCCC3)ccc2O[C@@H]1CN(C)Cc1ccc(Cl)c(Cl)c1	105*
COc1ccc(S(=O)(=O)Nc2cccc3c2O[C@H](CN(C)Cc2ccc(C(=O)O)cc2)[C@@H](C)CN([C@H](C)CO)C3=O)cc1	5
C[C@@H]1CN([C@@H](C)CO)C(=O)Cc2cc(NS(C)(=O)=O)ccc2O[C@@H]1CN(C)C(=O)Nc1cccc2ccccc12	5
Cc1noc(C)c1NC(=O)N(C)C[C@@H]1Oc2ccc(NC(=O)c3ccncc3)cc2C(=O)N([C@H](C)CO)C[C@H]1C	23
Cc1noc(C)c1NC(=O)N(C)C[C@@H]1Oc2ccc(NS(=O)(=O)c3ccc(F)cc3)cc2C(=O)N([C@H](C)CO)C[C@@H]1C	9
C[C@H]1CN([C@@H](C)CO)C(=O)Cc2cc(NC(=O)CCCCCC(=O)Nc3ccccc3N)ccc2O[C@@H]1CN(C)C(=O)Nc1cccc2ccccc12	16
COc1ccc(NC(=O)c2ccco2)cc1NC(=O)C(C)Oc1ccc(Cl)cc1Cl (stereo unspecified)	?
C[C@@H]1CN([C@H](C)CO)C(=O)c2cccc(NC(=O)C3CC3)c2O[C@H]1CN(C)S(=O)(=O)c1cn(C)cn1	-12
Cc1noc(C)c1S(=O)(=O)Nc1ccc2c(c1)CC(=O)N([C@H](C)CO)C[C@@H](C)[C@@H](CN(C)S(=O)(=O)c1c(C)noc1C)O2	17
COc1ccc(NC(=O)Nc2ccc3c(c2)CC(=O)N([C@@H](C)CO)C[C@@H](C)[C@@H](CN(C)Cc2ccc(Cl)c(Cl)c2)O3)cc1	21
CCOc1c(OC)cc(Cl)cc1C1NC(=O)NC(C)=C1C(=O)Nc1ccccc1C(=O)OC (stereo unspecified)	24
O=C(Nc1ccccc1C(=O)O)c1ncn[nH]1	-19
C[C@@H]1CCCCO[C@H](CN(C)C(=O)c2ccccc2)[C@@H](C)CN([C@H](C)CO)C(=O)c2cc(NC(=O)NC3CCCCC3)ccc2O1	-23

This part in full, repeating the preview:
SMILES	NOMO-1 viab
C[C@H]1CN([C@@H](C)CO)C(=O)Cc2cc(NC(=O)NC3CCCCC3)ccc2O[C@@H]1CN(C)Cc1ccc(Cl)c(Cl)c1	105*
COc1ccc(S(=O)(=O)Nc2cccc3c2O[C@H](CN(C)Cc2ccc(C(=O)O)cc2)[C@@H](C)CN([C@H](C)CO)C3=O)cc1	5
C[C@@H]1CN([C@@H](C)CO)C(=O)Cc2cc(NS(C)(=O)=O)ccc2O[C@@H]1CN(C)C(=O)Nc1cccc2ccccc12	5
Cc1noc(C)c1NC(=O)N(C)C[C@@H]1Oc2ccc(NC(=O)c3ccncc3)cc2C(=O)N([C@H](C)CO)C[C@H]1C	23
Cc1noc(C)c1NC(=O)N(C)C[C@@H]1Oc2ccc(NS(=O)(=O)c3ccc(F)cc3)cc2C(=O)N([C@H](C)CO)C[C@@H]1C	9
C[C@H]1CN([C@@H](C)CO)C(=O)Cc2cc(NC(=O)CCCCCC(=O)Nc3ccccc3N)ccc2O[C@@H]1CN(C)C(=O)Nc1cccc2ccccc12	16
COc1ccc(NC(=O)c2ccco2)cc1NC(=O)C(C)Oc1ccc(Cl)cc1Cl (stereo unspecified)	?
C[C@@H]1CN([C@H](C)CO)C(=O)c2cccc(NC(=O)C3CC3)c2O[C@H]1CN(C)S(=O)(=O)c1cn(C)cn1	-12
Cc1noc(C)c1S(=O)(=O)Nc1ccc2c(c1)CC(=O)N([C@H](C)CO)C[C@@H](C)[C@@H](CN(C)S(=O)(=O)c1c(C)noc1C)O2	17
COc1ccc(NC(=O)Nc2ccc3c(c2)CC(=O)N([C@@H](C)CO)C[C@@H](C)[C@@H](CN(C)Cc2ccc(Cl)c(Cl)c2)O3)cc1	21
CCOc1c(OC)cc(Cl)cc1C1NC(=O)NC(C)=C1C(=O)Nc1ccccc1C(=O)OC (stereo unspecified)	24
O=C(Nc1ccccc1C(=O)O)c1ncn[nH]1	-19
C[C@@H]1CCCCO[C@H](CN(C)C(=O)c2ccccc2)[C@@H](C)CN([C@H](C)CO)C(=O)c2cc(NC(=O)NC3CCCCC3)ccc2O1	-23
C[C@H]1CN([C@@H](C)CO)C(=O)c2cc(NS(=O)(=O)c3ccccc3)ccc2O[C@@H]1CN(C)Cc1ccccc1	4
Cc1cc(S(=O)(=O)NCC(=O)O)ccc1F	8
Cc1noc(C)c1NC(=O)Nc1cccc2c1O[C@H](CN(C)S(=O)(=O)c1ccc(Cl)cc1)[C@@H](C)CN([C@H](C)CO)C2=O	3
COc1ccc(S(=O)(=O)N(C)C[C@H]2Oc3c(NC(=O)NC4CCCCC4)cccc3C(=O)N([C@H](C)CO)C[C@H]2C)cc1	14
Cn1c(SCc2nc3ccccc3s2)nnc1-c1ccncc1	24
C[C@H](CO)N1C[C@H](C)[C@@H](CN(C)S(=O)(=O)c2ccccc2)Oc2c(NC(=O)c3nc4ccccc4s3)cccc2C1=O	30
C[C@@H]1CN([C@H](C)CO)C(=O)c2cccc(NS(C)(=O)=O)c2O[C@H]1CN(C)C(=O)Nc1ccc2c(c1)OCO2	0
C[C@@H]1O[C@@H](O[C@H]2[C@H](O[C@H]3CC[C@@]4(C)C(CC[C@]5(C)C4CC=C4C6CC(C)(C)CC[C@]6(C(=O)O)CC[C@]45C)[C@]3(C)CO)OC[C@H](O)[C@@H]2O)[C@H](O)[C@H](O)[C@H]1O (stereo partly specified)	119*
C[C@@H]1CN([C@@H](C)CO)C(=O)Cc2cc(NS(C)(=O)=O)ccc2O[C@@H]1CN(C)Cc1ccc2c(c1)OCO2	26
O=C(NCc1cccnc1)c1cnn2c(C(F)F)cc(C3CC3)nc12	-1
O=C(CC1(O)C(=O)Nc2ccccc21)c1ccc(NC(=O)C2CC2)cc1 (stereo unspecified)	20
COc1ccc(CN(C)C[C@H]2Oc3ccc(NC(=O)C4CC4)cc3C(=O)N([C@H](C)CO)C[C@H]2C)cc1	9
COc1ccc(S(=O)(=O)Nc2cccc3c2O[C@H](CN(C)S(=O)(=O)c2ccc(C)cc2)[C@H](C)CN([C@@H](C)CO)C3=O)cc1	62
Cc1ccc(C(=O)Nc2cc3ccccc3oc2=O)cc1	139*
CNC[C@@H]1OCCCC[C@@H](C)Oc2ccc(NS(=O)(=O)c3cn(C)cn3)cc2C(=O)N([C@H](C)CO)C[C@@H]1C	26
C[C@@H]1CN([C@H](C)CO)C(=O)c2cc(NC(=O)Nc3cccc4ccccc34)ccc2O[C@@H]1CN(C)Cc1ccncc1	15
COc1ccc(S(=O)(=O)Nc2ccc3c(c2)CC(=O)N([C@@H](C)CO)C[C@@H](C)[C@@H](CN(C)S(=O)(=O)c2ccc(Cl)cc2)O3)cc1	23
CC(C)NC(=O)N(C)C[C@H]1Oc2ccc(NC(=O)Nc3ccccc3)cc2C(=O)N([C@@H](C)CO)C[C@@H]1C	31
C[C@@H]1CN([C@@H](C)CO)C(=O)c2cc(NC(=O)Cc3cn(C)c4ccccc34)ccc2O[C@@H]1CN(C)C(=O)Nc1ccc(C(F)(F)F)cc1	60
O=C(CSc1n[nH]c(-c2ccco2)n1)Nc1ccc(F)cc1	16
COc1cccc(-c2cc(=O)c3cc(OC)ccc3o2)c1	59
Cc1noc(C)c1NC(=O)Nc1cccc2c1O[C@@H](CN(C)S(=O)(=O)c1cccs1)[C@@H](C)CN([C@@H](C)CO)C2=O	-6
C[C@H](CO)N1C[C@H](C)[C@H](CN(C)S(=O)(=O)c2cn(C)cn2)Oc2ccc(NC(=O)Cc3ccccc3)cc2C1=O	-10
CNC[C@@H]1Oc2c(NC(=O)Nc3ccc4c(c3)OCO4)cccc2C(=O)N([C@H](C)CO)C[C@H]1C	-1
COc1ccc(S(=O)(=O)Nc2ccc3c(c2)C(=O)N([C@H](C)CO)C[C@H](C)[C@@H](CN(C)Cc2ccc(Oc4ccccc4)cc2)O3)cc1	66
COc1ccc(NC(C)=S)cc1C	-4
C[C@@H]1CN([C@@H](C)CO)C(=O)Cc2cc(NC(=O)NC3CCCCC3)ccc2O[C@@H]1CN(C)C(=O)Nc1cccc2ccccc12	13
CC(Sc1cccc2cccc(C(=O)O)c12)C(=O)O (stereo unspecified)	8
Cc1ccc(S(=O)(=O)Nc2ccc3c(c2)C(=O)N([C@@H](C)CO)C[C@H](C)[C@@H](CN(C)CC2CCCCC2)O3)cc1	43
CCOc1cc(S(=O)(=O)n2nnc3ccccc32)ccc1F	8
COc1cc([N+](=O)[O-])ccc1NC(=S)Nc1nn(Cc2ccc(Cl)cc2Cl)cc1Cl	23
CCN(CC(=O)Nc1cccc(C)c1)S(=O)(=O)c1ccc(Br)cc1	-11
C[C@H]1CN([C@@H](C)CO)C(=O)c2cc(NC(=O)c3ccncc3)ccc2O[C@H]1CN(C)C(=O)Nc1ccccc1	7
Cc1ccccc1C1CC(=O)c2c(ccc3ccccc23)N1 (stereo unspecified)	140*
C[C@@H]1CCCCO[C@H](CN(C)C(=O)Nc2ccccc2)[C@@H](C)CN([C@H](C)CO)C(=O)c2cc(NC(=O)C3CCCCC3)ccc2O1	-5
Cc1noc(C)c1S(=O)(=O)Nc1ccc2c(c1)C(=O)N([C@H](C)CO)C[C@@H](C)[C@@H](CN(C)Cc1ccc(Cl)c(Cl)c1)O2	63
COc1ccc(NC(=O)Nc2ccc3c(c2)C(=O)N([C@@H](C)CO)C[C@@H](C)[C@@H](CN(C)Cc2ccc4c(c2)OCO4)O3)cc1	9

Carrying on:
SMILES	NOMO-1 viab
Cc1cccnc1NC(=O)COc1ccc(Cl)cc1Cl	43
COC(=O)c1cc(-c2ccccc2)sc1NC(=O)c1cnccn1	-1
CC(=O)Nc1ccc(NC(=O)CSc2nc3sc(C)c(C)c3c(=O)n2C)cc1	40
C[C@H](CO)N1C[C@H](C)[C@@H](CN(C)Cc2ccc3c(c2)OCO3)Oc2ccc(NS(=O)(=O)c3cccs3)cc2C1=O	-16
Cc1ccc(OCCCn2cncn2)c([N+](=O)[O-])c1	-2
COc1ccc(NC(=O)N(C)C[C@H]2Oc3c(NC(=O)NC(C)C)cccc3C(=O)N([C@@H](C)CO)C[C@@H]2C)cc1	16
CC1=CC(C)(C)N2C(=O)C(=O)c3cc(OC(=O)CN4C(=O)c5cccc6cccc(c56)C4=O)cc1c32	119*
C[C@H]1CN([C@@H](C)CO)C(=O)c2cc(NC(=O)NC3CCCCC3)ccc2O[C@@H]1CN(C)S(=O)(=O)c1ccc(F)cc1	9
COc1ccc(C2(CNC(=O)c3cccc([N+](=O)[O-])c3)CCOCC2)cc1OC	9
C[C@H](CO)N1C[C@H](C)[C@@H](CN(C)Cc2ccc(C(=O)Nc3ccccc3N)cc2)Oc2c(NC(=O)C3CCOCC3)cccc2C1=O	23
C[C@@H]1CN([C@@H](C)CO)C(=O)c2cccc(NC(=O)C3CC3)c2O[C@H]1CN(C)C(=O)NC1CCCCC1	11
CS(=O)(=O)N1CCN(c2ccccc2NC(=O)c2ccc(N3CCCCC3)c([N+](=O)[O-])c2)CC1	19
Cc1ccc(S(=O)(=O)Nc2ccc3c(c2)C(=O)N([C@@H](C)CO)C[C@@H](C)[C@H](CN(C)S(=O)(=O)c2cccs2)O3)cc1	11
C[C@@H]1CN([C@H](C)CO)C(=O)c2cccc(NS(=O)(=O)c3ccc(Cl)cc3)c2O[C@@H]1CN(C)C(=O)Nc1ccc2c(c1)OCO2	16
COc1ccc(Br)cc1/C=C/C(=O)O	4
COc1ccc2c(c1)CCC1C2CC[C@@]2(C)C1CC[C@@H]2O (stereo partly specified)	6
C[C@@H]1CN([C@H](C)CO)C(=O)c2cc(NC(=O)Nc3ccc(F)cc3)ccc2O[C@@H]1CN(C)C(=O)NC1CCCCC1	6
C[C@H](CO)N1C[C@H](C)[C@@H](CN(C)C(=O)Nc2cccc3ccccc23)Oc2ccc(NC(=O)Nc3ccc4c(c3)OCO4)cc2C1=O	4
COc1ccc(S(=O)(=O)Nc2ccc3c(c2)C(=O)N([C@@H](C)CO)C[C@H](C)[C@@H](CN(C)C(=O)Nc2ccc(C(F)(F)F)cc2)O3)cc1	7
O=C(CSc1nnnn1-c1ccccc1)Nc1cc(Cl)c(Cl)cc1Cl	9
C[C@@H]1CN([C@H](C)CO)C(=O)c2cccc(NS(=O)(=O)c3ccc(Cl)cc3)c2O[C@H]1CN(C)C(=O)Nc1ccc(C(F)(F)F)cc1	-6
Cc1noc(C)c1S(=O)(=O)Nc1ccc2c(c1)CC(=O)N([C@@H](C)CO)C[C@@H](C)[C@@H](CN(C)Cc1ccc(C(=O)O)cc1)O2	8
C[C@H]1CN([C@@H](C)CO)C(=O)c2cc(NC(=O)c3ccncc3)ccc2O[C@H]1CN(C)C(=O)Nc1cccc2ccccc12	8
C[C@H]1CN([C@@H](C)CO)C(=O)Cc2cc(NC(=O)NC3CCCCC3)ccc2O[C@@H]1CN(C)Cc1ccc2c(c1)OCO2	16
COc1ccc(NC(=O)N(C)C[C@H]2Oc3ccc(NC(=O)C4CC4)cc3CC(=O)N([C@@H](C)CO)C[C@@H]2C)cc1	9
Cc1noc(C)c1S(=O)(=O)N(C)C[C@H]1Oc2ccc(NS(=O)(=O)c3ccc(F)cc3)cc2C(=O)N([C@H](C)CO)C[C@H]1C	-8
C[C@H](CO)N1C[C@H](C)[C@@H](CN(C)C(=O)Nc2ccccc2)Oc2ccc(NC(=O)NC3CCCCC3)cc2C1=O	-2
C[C@H](CO)N1C[C@H](C)[C@H](CN(C)C(=O)Nc2ccc(C(F)(F)F)cc2)Oc2ccc(N(C)C)cc2CC1=O	8
Cc1ccc(S(=O)(=O)N(C)C[C@@H]2Oc3ccc(NS(=O)(=O)c4cccs4)cc3C(=O)N([C@@H](C)CO)C[C@@H]2C)cc1	35
COc1ccc(S(=O)(=O)N(C)C[C@H]2Oc3ccc(NC(=O)Nc4c(C)noc4C)cc3CC(=O)N([C@@H](C)CO)C[C@@H]2C)cc1	-12
Cc1noc(C)c1NC(=O)Nc1ccc2c(c1)C(=O)N([C@@H](C)CO)C[C@H](C)[C@@H](CN(C)C(=O)Nc1ccc(F)cc1)O2	10
CCOC(=O)c1cc(NC(=O)CSc2nc3ccccc3[nH]2)ccc1Cl	100*
C[C@H](CO)N1C[C@H](C)[C@H](CN(C)C(=O)Nc2ccccc2)Oc2ccc(NC(=O)C3CCCCC3)cc2CC1=O	-6
Cc1noc(C)c1NC(=O)Nc1cccc2c1O[C@H](CN(C)C(=O)Nc1ccc(F)cc1)[C@@H](C)CN([C@H](C)CO)C2=O	-13
